Source: PubChem
Menin MLL FP FL: qHTS Assay for Inhibitors Targeting the Menin-MLL Interaction in MLL Related Leukemias: Competition With Fluorescein Labeled MLL-derived Peptide | Fluorescence polarization, fluorescein-MLL peptide displacement from menin | FP activity change, % at 61.4 µM | 290,000 tested, under 10 active | AID 1766, 2009; inconclusive = falling polarisation curve, or a change in total fluorescence; inactive = total fluorescence flat and polarisation flat or rising; no compound was filed as active; the % refers to the polarisation; negative = inhibition;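 also: % of control where 0% means no effect; inhibitors lower the polarisation; unlabelled MLL peptide was the positive control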
ClpP mod: qHTS Assay for Activators of ClpP; purified B. subtilis ClpP, FRET peptide cleavage, 20 min; Potency, µM (top dose mostly 57.5 µM), inactives show top-dose activity change, negative = active; ATP-dependent Clp protease proteolytic subunit (Bacillus subtilis (strain 168)), P80244; 340,000 tested, 1.9% active; active = well fitted falling curve with a large enough effect; inconclusive = small, poorly fitted or top-dose-only effect; inactive = no such curve, though single readings can be large or run the other way; also: potency is read from the fitted curve at half-maximal effect; the source files actives as falling curves though it sought activators and does not explain the sign; nearly all actives have a fitted effect of over 65% in size; many hits overshoot -100%
Target sequence (P80244 whole entry, looked up): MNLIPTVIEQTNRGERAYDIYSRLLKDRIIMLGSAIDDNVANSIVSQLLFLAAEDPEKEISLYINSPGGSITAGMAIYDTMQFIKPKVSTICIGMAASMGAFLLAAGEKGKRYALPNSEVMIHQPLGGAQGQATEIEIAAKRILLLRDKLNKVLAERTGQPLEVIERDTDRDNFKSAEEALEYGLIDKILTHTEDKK
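ClpP 10 microg/mL final, pH 8 Tris/KCl buffer with BSA, glycerol, Tween-20; compound pinned in; FRET-FV substrate; RT 20 min; Ex320/Em430; ΔFRET vs ADEP 5.8 microM, DMSO, no enzyme.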
gsp agonist: qHTS for Agonist of gsp, the Etiologic Mutation Responsible for Fibrous Dysplasia/McCune-Albright Syndrome: qHTS | gsp mutant cells, cAMP HTRF, 30 min; control for the full effect not named in the record | Potency, µM (top dose mostly 76.9 µM), inactives show at the highest dose activation (cAMP increase), usual class: activators | 340,000 tested, 0.13% active; active = well fitted activation curve with a large enough effect; inconclusive = small, poorly fitted or top-dose-only effect, or another doubt; inactive = no such curve, though single readings can be large or run the other way; cell line not stated here;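 also: phosphodiesterase inhibitor Ro 20-1724 added with compounds to block cAMP breakdown; potency is read from the fitted curve at half-maximal effect; nearly all actives have a fitted effect of over 60% in size; about a fifth of the inactives were tested at one dose only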
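Cells stably selected in G418 were plated at 2000/well, grown 16-24 hr, then given compounds in DMSO with the PDE inhibitor […] (300 uM solution added) for 30 min at 37C; cAMP was read by HTRF.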
gsp antag: qHTS for Antagonists of gsp, the Etiologic Mutation Responsible for Fibrous Dysplasia/McCune-Albright Syndrome: qHTS. gsp-mutant cells, cAMP HTRF, 30 min; control for the full effect not named in the record. Potency, µM (top dose mostly 76.9 µM), inactives show at the top dose activity change, negative = inhibition, actives largely listed as inhibitors. 340,000 tested, 0.4% active; active = falling curve of any shape with a large fitted effect; inconclusive = falling curve, mostly with a smaller effect; inactive = flat or rising curve; cell line not stated here;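 also: intracellular cAMP measured with PDE inhibitor Ro 20-1724 present during compound exposure; potency is read from the fitted curve at half-maximal effect; % is scaled to controls: 0 for no effect and ±100 for the full control effect; nearly all actives have a fitted effect of over 65% in size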
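Cells in G418 medium, seeded 16-24 h, 37C; buffer exchange to DPBS + 1 mM CaCl2, 0.5 mM MgCl2, 0.05% BSA; cpds in DMSO + […] (300 uM stock), 30 min 37C; HTRF cAMP detection.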
TRPML1 agonist: qHTS for Agonists of the Human Mucolipin Transient Receptor Potential 1 (TRPML1). TRPML1-expressing cells, Ca2+ dye fluorescence, FDSS; host cell line not named in the record; reference of the full effect not given here. 410,000 tested, 0.12% active. Mucolipin-1 (Homo sapiens), Q9GZU1. AID 624414, 2012. activation, % (test concentration not listed); in the data active = activation above about 50%; inconclusive = about 30% to 50%; inactive = below about 30%; also: 0% is about no effect; the text of the record puts the active cut at 80%
Target sequence (Q9GZU1 whole entry, looked up): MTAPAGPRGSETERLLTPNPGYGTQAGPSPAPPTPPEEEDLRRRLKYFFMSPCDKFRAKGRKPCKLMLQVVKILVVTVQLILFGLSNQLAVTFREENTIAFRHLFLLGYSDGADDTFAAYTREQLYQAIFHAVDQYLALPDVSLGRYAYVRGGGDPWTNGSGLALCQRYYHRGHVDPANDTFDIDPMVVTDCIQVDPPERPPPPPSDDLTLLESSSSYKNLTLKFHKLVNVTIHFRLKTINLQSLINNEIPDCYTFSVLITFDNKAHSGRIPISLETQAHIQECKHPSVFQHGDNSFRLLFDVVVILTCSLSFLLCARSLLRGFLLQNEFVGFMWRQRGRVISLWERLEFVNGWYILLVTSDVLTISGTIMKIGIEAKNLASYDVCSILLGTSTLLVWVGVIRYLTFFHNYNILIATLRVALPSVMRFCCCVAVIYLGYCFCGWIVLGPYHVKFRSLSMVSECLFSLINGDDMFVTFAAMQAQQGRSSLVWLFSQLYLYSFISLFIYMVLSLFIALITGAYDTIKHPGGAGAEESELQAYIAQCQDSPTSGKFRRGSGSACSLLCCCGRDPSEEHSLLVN
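Cells: TRPML1-DL, 1X Tet inducer, ~16 h at 37 degrees C/5% CO2. Dye: ABD Ca8 no-wash + quencher, 45-90 min RT. Read: 10 s baseline, compound add, 110 s agonist phase; 54-4 EC80 (4uM final), 110 s antagonist phase.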
TRPML1 blocker: qHTS for Inhibitors of the Human Mucolipin Transient Receptor Potential 1 (TRPML1); AID 624415, 2012; activity change, negative = inhibition, % (test concentration not listed); TRPML1-inducible cells, Ca2+ dye fluorescence, FDSS; hits give low values; inhibition of EC80 agonist-evoked calcium signal; 390,000 tested, 0.02% active; Mucolipin-1 (Homo sapiens), Q9GZU1; in the data active means activity change below about -50%; inconclusive means about -30% to -50%; inactive means above about -30%;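 also: stimulus is agonist 54-4 at its EC80 concentration; % is scaled to controls: 0 for no effect and ±100 for the full control effect; compound concentration not given in the record; the text of the record puts the active cut at -80%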
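TRPML1-DL cells, Tet-induced overnight (~16 h, 37 °C) at 1,500 cells/well, were loaded with Ca8 no-wash dye plus quencher for 45-90 min at room temperature. Compounds were pinned during FDSS kinetic reading; agonist 54-4 at EC80 (4 uM final) then added.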
The depositor's hits bear a star; u = inconclusive; x = not tested or not shown; [ ] = remark or other dose.

structure	Menin MLL FP FL	ClpP mod	gsp agonist	gsp antag	TRPML1 blocker	TRPML1 agonist
COc1ccc(/C=C\C(=O)NCC(=O)N/N=C/c2ccc(O)cc2O)cc1	0.5	-15%	-73%	3%	23	1.3
Cc1cc(C)c(S(=O)(=O)NCc2cn3ccccc3n2)c(C)c1	x	-5.9%	-10%	0%	35	-0.3
CC(CN1CCCCC1)OC(=O)COc1ccc(Cl)cc1 (centres undefined)	-1.3	0.6%	-4%[15.4 µM]	7%	-5	0.2
COc1ccc(/C=N/NC(=O)c2ccc3c(c2)OCO3)c(C(=O)O)c1OC	-3.3	-7.7%	8%	-9%	-2	-0.3
Cc1cc(NC(=O)CCN2C(=O)C3C4CCC(C4)C3C2=O)cc(C)c1Br (centres undefined)	2.9	0.7%	1%	12%	-17	0.1
COc1ccccc1-c1ccc2c(c1)O[C@@H](CN(C)C(=O)c1ccncc1)[C@H](C)CN([C@@H](C)CO)S2(=O)=O	x	4.5%	3%	x	-13	0.2
Cc1cc(C)cc(-c2nnc(SCc3ccc(C(=O)O)cc3)o2)c1	1.8	x	-19%	-20%	10	0.3
O=C(Nc1nc2ccccc2[nH]1)Nc1ccccc1F	-0.6	x	-6%	-9%	15	0.2
CCOC(=O)C1CCCN(C(=O)c2ccc3c(=O)n(Cc4ccccc4OC)c(=S)[nH]c3c2)C1 (centres undefined)	x	-4.3%	18%	-40%	-5	-1.1
NS(=O)(=O)c1ccc(CCNC(=O)CN2CCN(Cc3cccc(C(F)(F)F)c3)CC2)cc1	1.4	x	-9%[15.4 µM]	-3%	12	-0.6
Cc1ccc(C(=O)NCCc2ccccc2)cc1S(=O)(=O)N1CCOCC1	x	-0.3%	-1%	-13%	-6	1.8
CCc1ccc(S(=O)(=O)c2nnn(-c3ccc(F)cc3)c2N)cc1	x	1.1%	x	x	11	3.5
COc1n[nH]c2nncnc12	-0.7	-0.5%	-18%	5%	2	-0.7
COc1ccc(OC)c(-n2c(N)c(C(=O)NCC3CCCO3)c3nc4ccccc4nc32)c1 (centres undefined)	5.4	18µM*	-1%	u	6	-0.1
COc1ccc2nc(C)cc(C(=O)O)c2c1	1.2	8.9µM*	0%	1%	1	-0.2

(listing goes on)
structure	Menin MLL FP FL	ClpP mod	gsp agonist	gsp antag	TRPML1 blocker	TRPML1 agonist
CCc1nnc(NC(=O)CSc2nc3c([nH]c4ccccc43)c(=O)n2-c2ccc(F)cc2)s1	x	-0.8%	x	x	15	1.0
O=C(NCCc1csc(-c2cccc(F)c2)n1)c1cccs1	x	-11%	x	x	6	2.0
CC(C)CN(C(=O)CN(C)C(=O)Cc1ccccc1Cl)c1c(N)n(CC(C)C)c(=O)[nH]c1=O	x	-2.3%	5%[15.4 µM]	2%	18	0.5
COc1ccccc1CNC(=O)CCNS(=O)(=O)c1ccc2c(c1)CC(C)N2C(C)=O (centres undefined)	-5.2	0.4%	8%	14%	-4	0.0
COC(=O)C1=C(C)NC(=O)CC1c1cc(Br)ccc1F (centres undefined)	0.5	0.9%	-50%[inhibitor]	14%	6	-0.7
COc1ccccc1CNC(=O)C(NS(=O)(=O)c1ccc2c(c1)CCN2C(C)=O)C(C)C (centres undefined)	x	-1.0%	x	x	16	-0.2
CCn1c2ccccc2c2nnc(SCC(=O)Nc3ccc4c(c3)OCO4)nc21	4.4	-1.9%	11%	-3%	-3	0.8
CCOc1ccc(-c2nnc(N)s2)cc1	-0.1	-6.9%	7%	0%	20	0.4
Cc1ccc(NC(=O)c2ccc3c(c2)OCCO3)cc1C	1.3	x	-18%[15.4 µM]	-14%	4	-0.4
Cn1c(-c2ccccc2)cnc1SCC(N)=O	2.0	-0.7%	-3%	-5%	13	3.3
Cc1cc(C)c(S(=O)(=O)NC2CC(C)(C)NC(C)(C)C2)cc1C	1.3	x	u	-10%	-7	-0.3
Cc1cc(SCC(=O)c2ccccc2)nc(SCC(=O)c2ccccc2)n1	2.5	-1.9%	-1%	-12%	39	5.6
COCCNC(=O)C(c1ccc(C)o1)N(Cc1cccs1)C(=O)c1snc(C(N)=O)c1N (centres undefined)	1.2	-11%	-55%[inhibitor]	-7%	7	1.0
O=C(c1ccc(Cl)c([N+](=O)[O-])c1)N1CCCc2ccccc21	-0.5	-0.8%	-38%	-17%	14	0.3
Nc1c(/C=C2/C=CC(=O)C(O)=C2)c(=O)nc2sc(CC(=O)N3CCCCC3)nn12	u	1.5%	-22%	10%	1	9.1

(listing goes on)
structure	Menin MLL FP FL	ClpP mod	gsp agonist	gsp antag	TRPML1 blocker	TRPML1 agonist
C/C(N)=C(/C#N)C(=O)CSc1nc2cc(Cl)ccc2s1	8.6	1.1%	-3%	u	24	0.8
Cc1nc2ccc(-c3ccccc3)cc2o1	2.5	0.8%	25%	3%	9	5.9
Cc1cccc(C)c1NC(=O)N1CCN(C2CCCCC2)CC1	2.3	0.8%	0%	8%	4	-0.8
Cc1ccc(Cl)cc1NC(=O)/C(C#N)=C\c1cn(Cc2ccc(F)cc2)c2ccccc12	x	-0.3%	x	x	10	0.0
COc1ccc(S(=O)(=O)Nc2cccc(S(=O)(=O)N3CCCCCC3)c2)cc1	1.7	2.0%	-9%	-28%	-10	0.6
COc1ccc(Cc2c(-c3cccc(Cl)c3)nc3c(C)cc(Br)cn23)c(C)c1	x	-4.0%	x	x	10	0.5
Cc1ccc(CC(=O)Nc2ccc(F)c([N+](=O)[O-])c2)cc1C	0.0	-0.1%	21%	0%	13	1.8
COc1ccc(-c2oc3ncn4nc(COc5ccc(Cl)cc5)nc4c3c2-c2ccc(OC)cc2)cc1	x	35%	x	x	-22	-0.7
CCOc1ccccc1NC(=S)N1CCN(c2ccc(O)cc2)CC1	2.9	1.8%	-26%	-13%	-15	2.4
O=S(=O)(c1ccccc1Cl)N1CCCC(c2nc(-c3cccnc3)no2)C1 (centres undefined)	0.6	-1.4%	u	u	65	1.0
Brc1cccc(-c2nnc3sc(CNCc4ccco4)cn23)c1	5.6	-8.4%	7%	-10%	23	0.2
CC(C)CNC(=O)C(=O)NCC1OCCCN1S(=O)(=O)c1ccc2c(c1)OCCO2 (centres undefined)	x	1.4%	-11%[15.4 µM]	5%	-12	-0.7
CCNC(=S)NNC(=O)c1ccoc1C	-2.6	1.9%	6%	9%	20	-0.3
CCOC(=O)N1CCN(C(=O)C2COc3ccccc3O2)CC1 (centres undefined)	1.1	-0.9%	u	u	-10	2.2
Cc1nc2ccc(NS(=O)(=O)c3c(F)cc(F)cc3Br)cc2s1	x	-0.4%	29%	-25%	-14	-1.3

The list goes on.
structure	Menin MLL FP FL	ClpP mod	gsp agonist	gsp antag	TRPML1 blocker	TRPML1 agonist
C/C(=N\NS(=O)(=O)c1ccccc1)c1ccc2c(c1)OCO2	-0.9	x	13%	7%	-6	0.4
Cc1nn(Cc2ccccc2)c2sc(C(=O)NCc3cccnc3)cc12	0.3	-3.1%	1%	-21%	21	-0.5
CCN(CC(=O)Nc1ccccc1C(F)(F)F)C(=O)CSCc1ccc(C)cc1	x	-3.7%	-2%	-11%	-19	-0.2
CN1CCN(S(=O)(=O)c2ccc3c(c2)oc(=O)n3C)CC1	x	0.3%	4%	18%	-6	3.4
COc1ccc(NC(=O)COC(=O)Cc2c[nH]c3ccccc23)cc1Cl	x	x	-36%[inhibitor]	-1%	16	2.2
CNC(=O)C(=O)NCCN1CCN(S(=O)(=O)c2ccc3ccccc3c2)CC1	-0.1	1.5%	-7%	-3%	-4	-0.2
CCS(=O)(=O)c1ccc(O)c(NC(=O)CCCC(=O)O)c1	3.3	0.2%	-1%[15.4 µM]	-4%	23	-0.2
Cc1cccn2c(=O)c3cc(C(=O)N4CCCCC4C)sc3nc12 (centres undefined)	x	4.0%	-17%	8%	2	0.5
Cc1cccc(-n2ccnc2SCC(=O)Nc2nc3ccccc3s2)c1	x	3.4%	x	x	-8	1.2
O=C1CCCC2=C1C(c1ccncc1)n1c(nc3ccccc31)N2 (centres undefined)	-0.1	x	23%[15.4 µM]	8%	-6	-0.5
Cc1ccc(C)c2c1[nH]c1ccc([N+](=O)[O-])cc12	-4.7	0.7%	9%	-14%	-6	-1.1
C=CCNC(=O)CN1C(=O)NC(C)(c2ccc(OC)cc2)C1=O (centres undefined)	-1.1	x	25%[15.4 µM]	3%	-4	0.8
CCN1C(C(=O)c2ccccc2)=C(OC(=O)COc2ccc(C)cc2)c2ccccc2S1(=O)=O	x	-1.2%	x	x	1	0.9
COc1cc(C(=O)Nc2nc3ccc4nc(C)sc4c3s2)cc(OC)c1OC	3.4	-14%	u	7%	7	0.2
C=C1CCN(C(CC(C)C)C(=O)N2CCOCC2)S(=O)(=O)c2ccccc21 (centres undefined)	0.0	x	x	x	-14	0.5

The last 2 compounds of the section above are carried over, then new ones follow:
structure	Menin MLL FP FL	ClpP mod	gsp agonist	gsp antag	TRPML1 blocker	TRPML1 agonist
COc1cc(C(=O)Nc2nc3ccc4nc(C)sc4c3s2)cc(OC)c1OC	3.4	-14%	u	7%	7	0.2
C=C1CCN(C(CC(C)C)C(=O)N2CCOCC2)S(=O)(=O)c2ccccc21 (centres undefined)	0.0	x	x	x	-14	0.5
COc1cc(CC(=O)NCc2ccc3c(c2)OCO3)cc(OC)c1OC	1.5	0.8%	10%	14%	-14	2.5
CCN(CC)S(=O)(=O)c1cc(NC(=O)CCc2c(C)noc2C)ccc1C	x	x	26%	0%	2	0.3
COc1ccc(C2CC(c3ccc(Cl)cc3)n3nc(N)nc3N2)cc1 (centres undefined)	3.1	-3.7%	-4%	-2%	-8	0.1
Cc1ccc(CCNC(=O)C2CCN(S(=O)(=O)c3ccc4c(c3)NC(=O)C(C)S4)CC2)cc1 (centres undefined)	1.1	x	-12%	u	2	1.9
Nc1ccc(N=Nc2ccccc2O)c(N)c1	x	-2.0%	-4%[15.4 µM]	-4%	8	0.9
Cc1nn(-c2ccccc2)c(N2CCCC2)c1/C=N/Nc1ccc(S(N)(=O)=O)cc1[N+](=O)[O-]	-0.6	-2.7%	-2%	u	-6	4.4
O=C(O)c1cc(-c2ccc(/C=N/N3C(=O)C4C5C=CC(CC5)C4C3=O)o2)ccc1Cl (centres undefined)	0.0	x	0%[15.4 µM]	x	16	-0.2
